FGF22 binding = FGF22 (human) thermal shift binding | Q9HCT0 | recombinant FGF22 thermal shift, SYPRO orange fluorescence; percent of sucrose octasulfate shift, DMSO zero | calls only at 9.99 µM | 340,000 tested, 1.5% active | AID 651658;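 active = melting point raised past a set limit in the mean and every replicate; three in four hits are not shown here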
Target sequence (Q9HCT0 whole entry, looked up): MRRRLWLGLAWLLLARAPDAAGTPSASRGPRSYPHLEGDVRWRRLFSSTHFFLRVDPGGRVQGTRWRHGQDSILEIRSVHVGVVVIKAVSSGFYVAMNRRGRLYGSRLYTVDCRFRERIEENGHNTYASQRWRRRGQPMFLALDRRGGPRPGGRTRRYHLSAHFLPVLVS
rRNA inh HTS = inhibits bacterial ribosomal RNA function over humanized ribosomes | E. coli WT GFP vs humanized-ribosome RFP mutants, fluorescence, 24 h; stronger effect = lower value; DMSO median 0, no signal -100 | GFP signal change (wild-type ribosome), % (test concentration not listed) | 350,000 tested, 1.6% active | AID 720706;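 active = significant combined selectivity score with lowered wild-type GFP, culture density cut under 30%, mutant RFP and density less affected; inactive = any of these conditions unmet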; also: one replicate is shown; some compounds called inactive have numbers as strong as hits
rRNA inh HTS OD600 = recorded beside rRNA inh HTS, whose call it bears; OD600 change, %; measured here: OD600 growth;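 optical density of the mix in the first replicate; 0 = DMSO median and -100 = no signal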
rRNA inh HTS RFP = recorded beside rRNA inh HTS, whose call it bears; RFP signal change, %; measured here: RFP humanized mutant strains;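 first replicate; 0 = DMSO median and -100 = no signal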
* hit, by the source's call; i = inactive; . = not tested or not shown; + = active, no number; & = joins results of further samples. This is a subset; the hit share may differ from the screen's.

SMILES	FGF22 binding	rRNA inh HTS	rRNA inh HTS OD600	rRNA inh HTS RFP
COCC(=O)N1CC[C@H]2[C@H](CO)Nc3ccc(-c4ccc(C#N)cc4)cc3[C@H]21	i	-1	6	-7.1
Cc1cc(C(=O)Nc2ccc3c(c2)C(=O)N(C)[C@H]2CC[C@@H](CC(=O)O)O[C@@H]2CO3)no1	i	3	8	2.0
CS(=O)(=O)N1C[C@@H]2N[C@H](C1)[C@@H]2c1ccc(-c2ccccc2)cc1	i	1	1	0.8
CN(C)C(=O)c1ccc(-c2ccc3c(c2)[C@H]2[C@H](CCN2C(=O)c2ccc4c(c2)OCO4)[C@H](CO)N3)cc1	i	-5	-6	3.2
OC(c1ccccc1)(c1ccccc1)C1CCN(CCCOc2cccc(F)c2)CC1	i	-53	-79	-18
C[C@H](CO)N1C[C@H](C)[C@H](CN(C)C(=O)CCCN(C)C)OCCCC[C@H](C)Oc2ccc(NC(=O)c3ccncc3)cc2C1=O	i	-1	7	-0.6
COc1ccc(CN(C)C[C@@H]2OCCCC[C@@H](C)Oc3ccc(NS(=O)(=O)c4ccc(OC)cc4)cc3C(=O)N([C@H](C)CO)C[C@H]2C)cc1	i	4	-3	3.1
Cc1ccc(S(=O)(=O)N2C[C@H]3[C@@H](c4ccccc42)[C@H](CO)N3Cc2cccnc2)cc1	i	-14	-1	7.3
C[C@@H]1CCCCO[C@H](CN(C)Cc2ccncc2)[C@H](C)CN([C@@H](C)CO)C(=O)c2cc(NC(=O)Nc3ccc(F)cc3)ccc2O1	i	-7	-22	5.1
C[C@@H]1CCCCO[C@@H](CN(C)CC2CCCCC2)[C@@H](C)CN([C@@H](C)CO)C(=O)c2cc(NC(=O)CCC(F)(F)F)ccc2O1	i	2	2	-1.6
COC(=O)C1=C(C)N(Cc2cccc(C(F)(F)F)c2)C(=NCc2ccccc2C(F)(F)F)NC1c1cccc(C(F)(F)F)c1 (stereo unspecified)	i	13	10	3.1
C[C@@H]1CCCCO[C@@H](CN(C)S(=O)(=O)c2cccs2)[C@H](C)CN([C@@H](C)CO)C(=O)c2cc(NC(=O)Nc3cccc4ccccc34)ccc2O1	i	-2	8	-2.2
C[C@H](CO)N1C[C@H](C)[C@H](CN(C)S(C)(=O)=O)Oc2ccc(NC(=O)Cn3cnnn3)cc2C1=O	i	2	4	-1.2
CN(C)c1cccc2c(S(=O)(=O)NC(=O)[C@H]3O[C@@H](n4ccc(=O)[nH]c4=O)[C@H](O)[C@@H]3O)cccc12	i	12	9	4.2
Cc1ccccc1Br	i	4	3	0.1

An excerpt from above in order of molecular weight, highest first.
SMILES	FGF22 binding	rRNA inh HTS	rRNA inh HTS OD600	rRNA inh HTS RFP
C[C@@H]1CCCCO[C@@H](CN(C)S(=O)(=O)c2cccs2)[C@H](C)CN([C@@H](C)CO)C(=O)c2cc(NC(=O)Nc3cccc4ccccc34)ccc2O1	i	-2	8	-2.2
COc1ccc(CN(C)C[C@@H]2OCCCC[C@@H](C)Oc3ccc(NS(=O)(=O)c4ccc(OC)cc4)cc3C(=O)N([C@H](C)CO)C[C@H]2C)cc1	i	4	-3	3.1
COC(=O)C1=C(C)N(Cc2cccc(C(F)(F)F)c2)C(=NCc2ccccc2C(F)(F)F)NC1c1cccc(C(F)(F)F)c1 (stereo unspecified)	i	13	10	3.1
C[C@@H]1CCCCO[C@@H](CN(C)CC2CCCCC2)[C@@H](C)CN([C@@H](C)CO)C(=O)c2cc(NC(=O)CCC(F)(F)F)ccc2O1	i	2	2	-1.6
C[C@H](CO)N1C[C@H](C)[C@H](CN(C)S(C)(=O)=O)Oc2ccc(NC(=O)Cn3cnnn3)cc2C1=O	i	2	4	-1.2
Cc1ccc(S(=O)(=O)N2C[C@H]3[C@@H](c4ccccc42)[C@H](CO)N3Cc2cccnc2)cc1	i	-14	-1	7.3
Cc1cc(C(=O)Nc2ccc3c(c2)C(=O)N(C)[C@H]2CC[C@@H](CC(=O)O)O[C@@H]2CO3)no1	i	3	8	2.0
OC(c1ccccc1)(c1ccccc1)C1CCN(CCCOc2cccc(F)c2)CC1	i	-53	-79	-18
COCC(=O)N1CC[C@H]2[C@H](CO)Nc3ccc(-c4ccc(C#N)cc4)cc3[C@H]21	i	-1	6	-7.1
Cc1ccccc1Br	i	4	3	0.1

(cont.)
SMILES	FGF22 binding	rRNA inh HTS	rRNA inh HTS OD600	rRNA inh HTS RFP
C[C@@H]1CN([C@@H](C)CO)C(=O)c2cc(NC(=O)C3CCCCC3)ccc2O[C@@H](C)CCCCO[C@@H]1CN(C)Cc1ccc(C(F)(F)F)cc1	i	5	18	8.2
CN(C)C(=O)C[C@H]1C[C@H]2c3cc(NS(=O)(=O)c4ccc(F)cc4)ccc3O[C@H]2[C@H](CO)O1	i	-4	-14	-0.3
C[C@H]1CN([C@@H](C)CO)C(=O)Cc2cc(NC(=O)Cn3cnnn3)ccc2O[C@@H]1CN(C)S(C)(=O)=O	i	0	1	2.0
Cc1ccccc1-c1ccc(C2[C@@H]3CN(C(=O)Cc4ccncc4)C[C@H]2N3)cc1 (stereo partly specified)	i	-3&-1	-11&-10	-0.6&6.8
COCCNC(=S)N(C)[C@H]1C[C@H]2c3[nH]c4c(-c5ccccc5)cccc4c3CCN2C(=O)[C@H]1[C@H](C)O	i	8	5	5.2
O=C(Nc1ccc(F)cc1)Nc1ccc2c(c1)[C@@H]1C[C@H](CC(=O)N3CCCCC3)O[C@H](CO)[C@@H]1O2	i	-3	-5	2.6
C[C@H](CO)N1C[C@H](C)[C@H](CN(C)Cc2ccc(C(F)(F)F)cc2)OCCCC[C@H](C)Oc2ccc(NC(=O)C3CCCCC3)cc2C1=O	i	-2	1	4.0
Brc1cccc(CN2CCN(c3ncc(Cc4ccccc4)cn3)CC2)n1	i	-27	-57	3.0
CCCC(=O)Nc1ccc2c(c1)C(=O)N(C)[C@H]1CC[C@@H](CC(=O)OC)O[C@@H]1CO2	i	-1	-3	1.7
CN(C)c1ccc2c(c1)[C@H]1C[C@H](CC(=O)NCc3ccc(-c4ccccc4)cc3)O[C@@H](CO)[C@H]1O2	i	-11	-23	3.5
CC(C)NC(=O)Nc1ccc2c(c1)C(=O)N([C@H](C)CO)C[C@@H](C)[C@@H](CN(C)Cc1ccc(Oc3ccccc3)cc1)O2	i	-1	-13	3.0
C[C@@H]1CN([C@H](C)CO)C(=O)Cc2cc(NS(=O)(=O)c3cccs3)ccc2O[C@H]1CN(C)C(=O)Nc1cccc2ccccc12	i	2	0	-0.1
COC(=O)[C@@H](Cc1ccccc1)N[C@H](/C=C/c1ccccc1)[C@@H](O)Cc1ccccc1	i	-6	-2	2.5
CCS(=O)(=O)N1CCCCN2[C@H](CO)[C@@H](c3ccc(-c4ccc(C(=O)N(C)C)cc4)cc3)[C@@H]2C1	i	-3	3	0.1
O=C(c1ccncc1)N1CC[C@@H]2[C@@H](CO)Nc3ccc(-c4ccc(F)cc4)cc3[C@@H]21	i	-5	-9	-0.2
CO[C@H]1CN(C)C(=O)c2ccc(NC(=O)Nc3cc(Cl)cc(Cl)c3)cc2OC[C@@H](C)NC[C@H]1C	i	-2&-5&-60	2&-2&-81	4.3&15&-14
CC(C)C(=O)Nc1ccc2c(c1)C(=O)N(C)[C@H]1CC[C@H](CC(=O)NCc3ccccc3F)O[C@H]1CO2	i	0	-2	0.4
COC(=O)C[C@@H]1CC[C@H]2[C@H](COc3ccc(NS(C)(=O)=O)cc3C(=O)N2C)O1	i	-2	-6	-4.2
Nc1ncnc2c1ncn2[C@@H]1O[C@H](C(=O)N[C@@H](CCc2ccccc2)C(=O)N2CCN(C(=O)N3CCOCC3)CC2)[C@@H](O)[C@H]1O	i	6	17	2.4
Cc1noc(C)c1NC(=O)Nc1ccc2c(c1)C(=O)N([C@@H](C)CO)C[C@@H](C)[C@@H](CN(C)Cc1ccc(C(=O)O)cc1)OCCCC[C@@H](C)O2	i	2	7	0.6
CN1CCN(C(=O)C[C@@H]2C[C@H]3c4cc(NC(=O)Nc5ccccc5)ccc4O[C@H]3[C@@H](CO)O2)CC1	i	2	-2	-4.1
CCCNC(=O)C[C@H]1C[C@@H]2c3cc(NC(=O)c4cccnc4)ccc3O[C@@H]2[C@H](CO)O1	i	1	9	-1.0
CC(C)NC(=O)N(C)C[C@H]1Oc2c(NC(=O)Nc3ccc4c(c3)OCO4)cccc2C(=O)N([C@@H](C)CO)C[C@H]1C	i	-8	-5	-0.4
C/C=C/c1ccc([C@@H]2[C@@H](CO)N(CCC(F)(F)F)C23CN(C(C)=O)C3)cc1	i	1	5	0.7
CC(C)C1=CC2C3C(=O)N(c4ccccc4)C(=O)C3C1C(=O)C2(C)O (stereo unspecified)	i	11	13	3.5
Cc1ccc(S(=O)(=O)Nc2ccc3c(c2)C(=O)N([C@H](C)CO)C[C@@H](C)[C@H](CN(C)Cc2ccccc2)OCCCC[C@@H](C)O3)cc1	i	-1	-14	5.9
O=C(C[C@H]1CC[C@@H]2[C@H](COC[C@@H](O)CN2C(=O)Nc2ccc(Cl)cc2)O1)NC1Cc2ccccc2C1	i	-46	-64	13
Cc1cc(NCCc2c[nH]c3ccccc23)ccc1Nc1cccnc1	i	6	5	36
CN1[C@H](C(=O)NCc2ccncc2)[C@@H](CO)[C@@H]2Cn3c(ccc(-c4ccccc4F)c3=O)[C@@H]21	i	2	4	-2.5
Cc1ccccc1C(=O)N[C@H](C(=O)N1CCC[C@H]1C(=O)NCCc1ccccc1Cl)C(C)C	i	13	-3	3.0
COC(=O)C1=C(C)N(C)C(=NCc2ccccc2)NC1c1ccccc1C(F)(F)F (stereo unspecified)	i	17	17	8.2
C[C@H](NC(=O)C[C@@H]1CC[C@H]2[C@@H](COC[C@H](O)CN2C(=O)Nc2cccc(Cl)c2)O1)c1ccccc1	i	i	.	.
CNC(=O)C[C@H]1CC[C@@H]2[C@@H](COc3ccc(NC(=O)c4cc(C)on4)cc3C(=O)N2C)O1	i	0	3	-3.6
CCCC(=O)Nc1ccc2c(c1)C(=O)N(C)[C@@H]1CC[C@@H](CC(=O)NCCN3CCCCC3)O[C@@H]1CO2	i	5	3	-3.3
C[C@@H]1CN([C@@H](C)CO)C(=O)c2cc(NC(=O)Nc3ccc4c(c3)OCO4)ccc2O[C@@H](C)CCCCO[C@@H]1CN(C)C(=O)CCCN(C)C	i	4	9	-0.7
Cc1cc(O)cc(=O)n1-c1cc(C(F)(F)F)cc(C(F)(F)F)c1	i	7	20	0.7
COCC(=O)Nc1ccc2c(c1)[C@@H]1C[C@H](CC(=O)NCc3cc(F)ccc3F)O[C@@H](CO)[C@@H]1O2	i	-1	3	-2.0
COc1ccc(S(=O)(=O)Nc2ccc3c(c2)C(=O)N([C@@H](C)CO)C[C@H](C)[C@H](CN(C)S(=O)(=O)c2ccc(OC)cc2)OCCCC[C@H](C)O3)cc1	+	0	6	-2.0
COc1cc(C(=O)O)ccc1OCc1ccccc1	i	3	11	2.4
C[C@H](CO)N1C[C@H](C)[C@H](CN(C)S(=O)(=O)c2ccc(Cl)cc2)OCCCC[C@H](C)Oc2ccc(NC(=O)Nc3ccc(C(F)(F)F)cc3)cc2C1=O	i	-4	-3	-3.3
CC1C=NC(S(=O)(=O)N2CC[C@H]3[C@@H](CO)N(C)c4ccc(C#Cc5cccnc5)cc4[C@H]32)=N1 (stereo partly specified)	i	4	24	3.2
CNC(=O)C[C@@H]1CC[C@H]2[C@H](COc3ccc(NC(=O)c4ccccc4F)cc3C(=O)N2C)O1	i	1	7	-0.4
COC(=O)C1=C(C)N(Cc2cccc(C(F)(F)F)c2)C(=NCc2ccc3c(c2)OCO3)NC1c1ccccc1C(F)(F)F (stereo unspecified)	i	-46	-59	-9.7
Cc1ccc2nc(CN(C)C(=O)[C@H]3O[C@@H](n4cnc(C(N)=O)n4)[C@H](O)[C@@H]3O)[nH]c2c1	i	31	7	0.8
O=C(C[C@H]1CC[C@@H]2[C@H](COC[C@H](O)CN2Cc2cccc(Cl)c2)O1)NCC1CCCCC1	i	-35	-66	2.9
COc1ccc(-c2ccc3c(c2)[C@H]2[C@H](CCN2C(=O)C2CCOCC2)[C@@H](CO)N3C)cc1	i	-1	-6	-1.0
COC(=O)C1=C(C)N(CC(C)C)C(=S)NC1c1ccc(Cl)cc1 (stereo unspecified)	i	-21	-53	16
O=C(NCC[C@@H]1CC[C@@H](NS(=O)(=O)c2cccc(F)c2)[C@@H](CO)O1)C1CC1	i	-1	-3	0.0
Cc1ccc(S(=O)(=O)N(C)C[C@H]2Oc3c(NS(=O)(=O)c4ccc(F)cc4)cccc3C(=O)N([C@H](C)CO)C[C@H]2C)cc1	i	0	-16	-0.6
O=C(C[C@@H]1CC[C@H]2[C@@H](COC[C@@H](O)CN2C(=O)c2ccccc2F)O1)NCc1ccc(Cl)c(Cl)c1	i	-4	-18	2.7
C[C@@H]1CN([C@H](C)CO)C(=O)c2cc(NC(=O)NC3CCCCC3)ccc2O[C@@H](C)CCCCO[C@@H]1CN(C)C(=O)c1ccncc1	i	-1	-1	2.2
COc1ccc(S(=O)(=O)N(C)C[C@@H]2Oc3ccc(NS(=O)(=O)c4ccc(Cl)cc4)cc3CC(=O)N([C@H](C)CO)C[C@H]2C)cc1	i	-2	-4	2.3

Assay outcomes deposited in PubChem BioAssay by Broad Institute.
